Screening data as filed in PubChem.
BJeLR viability – kills HRASV12-expressing BJeLR cells. inhibition, % (no concentration beside the values). BJeLR (HRASV12) viability, CellTiter-Glo ATP luminescence, 48 h; reference of the scale not given here. hit rate 0.17% among 300,000;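 active = replicate mean above 50%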;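 note: 50 nL library stock added to about 25 µL; numbers are from one replicate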
RN4220 kill – S. aureus RN4220 growth inhibition. inhibition, % (no concentration beside the values). AID 1259311. hit rate 0.33% among 330,000. OD600, 16 h;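 active = z-score of -3 or lower and OD600 up to 0.18 on both plates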;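 note: plate controls were untreated cells for no effect and reference antibiotic for full effect; stock transfer was 100 nL into about 80 µL; one replicate is shown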
Mtb hypoxia inh – reduces hypoxia-regulated biosensor signal in M. tuberculosis; M. tuberculosis hypoxia-regulated fluorescent reporter, fluorescence; fluorescence inhibition, % (concentration not given with the values); hit rate 0.1% among 300,000;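 active = 35 to 45% if threefold the growth effect, above 45% if 1.5-fold the growth effect; inactive = the rest, general growth blockers included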;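 note: wells of about 50 µL received 100 nL stock; 0% = vehicle wells and 100% = reference inhibitor wells; whole bacteria with a GFP reporter of the hypoxia response; strong numbers were not always called active; many hits fall short of the cut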
PrP UTR inh – inhibition of PrP 5' UTR reporter expression; cell-based PrP 5' UTR mRNA reporter, plate reader; hit rate 0.35% among 340,000; inhibition, % (concentration not given with the values); AID 488862;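 active = every replicate at 50% or more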;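 note: 0 = median of the neutral control wells; tested in H4 reporter cells; numbers are from one replicate; inactives centre near -14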
Sa ugtP lethal – growth inhibition of S. aureus ugtP deletion strain. hit rate 0.54% among 330,000. S. aureus RN4220 ugtP deletion, OD600 growth, 16 h; some inactives read as strong as hits. AID 1259309. growth inhibition, % (test concentration not listed);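 active = z-score under -3 and OD600 up to 0.15 on both plates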;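 note: plate controls were untreated wells for no effect and antibiotic for full effect; wells of about 80 µL received 100 nL stock; the first replicate is given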
Autofluor counter – compound fluorescence in toxin protease inhibitor counterscreen. fluorescence intensity (test concentration not listed). AID 624483. compound autofluorescence counterscreen, microsphere flow cytometry; hits give high values. hit rate 3.1% among 360,000;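 active = at least 3 SD above the mean of all compounds, about 16000 in these data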;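 note: 100 nL of 1 mM stock went into each well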
Mtb hypoxia inh growth – further read-out of Mtb hypoxia inh, marked with its call; growth inhibition, %; measured here: M. tuberculosis growth (absorbance);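 0% = vehicle and 100% = reference antibiotic; read after six days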
The depositor's hits bear a star; . = not tested or not shown. Hits appear at their usual frequency. About 4% of those tested had a hit in this group.

structure	RN4220 kill	PrP UTR inh	Sa ugtP lethal	Autofluor counter	BJeLR viability	Mtb hypoxia inh growth	Mtb hypoxia inh
CCOc1ccc(CCNC(=O)CN2CCN(Cc3ccccc3C)C2=O)cc1OCC	-1.5	-2	13	3687	1	.	.
CC(C)(C)CC(=O)NCCCCCCNC(=O)CC(C)(C)C	2.0	-28	6	2224	-6	7	12
CCOCCCNC(=O)c1ccccc1SC	-7.4	-10	-15	2480	-4	.	.
Cc1c(C=NNC(=O)c2cc(Br)ccc2O)c(=O)n(C)c(=O)n1C	9.9	.	11	.	.	0	-3
O=C(CN1C(=O)C(=O)N(C2CCCC2)C1=O)Nc1ccc([N+](=O)[O-])cc1	-1.9	-21	5	4880	.	6	1
C/C(=C/c1oc2ccc(O)cc2c1[N+](=O)[O-])N(C)C	2.6	-19	3	3193	2	-17	-67
COc1ccc(N(CC(=O)N/N=C(\C)c2ccccc2)S(=O)(=O)c2ccccc2)cc1	.	-13	.	2994	2	.	.
Cc1ccc(NS(=O)(=O)c2cccc3cccnc23)c(Cl)c1	-0.8	-1	3	3868	-7	6	14
Cc1c(Cl)cccc1NC(=S)NCC(c1cccnc1)N(C)C (stereo not drawn)	2.4	-14	7	2078	0	6	11
Cc1ccc(NC(=O)CSc2ccc(-c3ccco3)nn2)c(C)c1	16	-28	3	4470	.	8	7
O=C(NCc1c(Cl)cccc1Cl)c1ccc2nnsc2c1	-3.0	-26	8	3794	-6	12	2
Cc1cc2occ(CC(=O)OCC(=O)Nc3sc4c(c3C#N)CCC(C)C4)c2cc1C (stereo not drawn)	1.8	-12	-6	2389	1	1	-6
CC(=O)c1cccc(NC(=O)NN2CCN(C)CC2)c1	2.8	-11	4	5407	4	4	14
Fc1ccc(CSc2ncnc3nc[nH]c23)cc1	3.0	-4	8	5328	15	-1	10
CC(=O)c1cccc(NC(=O)/C=C/c2ccc(S(=O)(=O)N3CCOCC3)cc2)c1	1.4	-1	1	3390	.	9	11
CN(C)C(=O)Oc1ccc2c(c1)O/C(=C\c1ccccc1)C2=O	5.3	-58	-2	3956	3	0	8
CCOc1ccc(OCc2ccc(C(=O)N3CCc4ccccc4C3)o2)cc1	3.2	-36	26	8021	-7	6	8
O=C1c2ccccc2C2=Nc3ccccc3SC(c3ccc(Cl)cc3)C12 (stereo not drawn)	-6.7	-24	-23	2228	-2	7	2
Cc1cc(/C(N)=N/OC(=O)Nc2ccc(Cl)cc2)no1	1.5	-73	-7	3849	-5	-4	2
Cc1cc(C)c(C#N)c(SCc2nnc(-c3ccccc3)o2)n1	3.6	68*	4	2389	1	.	.
Cc1ccc(NC(=O)NCCCCc2ccccc2)cc1	0.5	-21	5	6399	0	-9	5
Cc1nnc(NC(=O)c2ccccc2C(=O)O)s1	5.2	-12	11	16073	-8	6	1
Nc1ccc(N2C(=O)c3ccccc3C2=O)c(Cl)c1	5.2	-6	-2	5613	.	9	10
CC(C)(Oc1ccc(Cl)cc1)C(=O)N1CCN(c2ccccn2)CC1	-16	-11	-7	2834	1	11	13
CCN(C(=O)COC(=O)c1ccccc1SCC(=O)NC1CCCCCCC1)C1CCS(=O)(=O)C1 (stereo not drawn)	3.0	-7	8	2880	2	7	5
Cc1ccc(CC(NC(=O)c2ccccc2)C(=O)N2CCCC2C(=O)O)cc1 (stereo not drawn)	1.6	-15	-2	11916	-2	3	-1
COc1ccc(NC(=O)CSc2nc3sc(C)cc3c(=O)n2C)c(OC)c1	1.0	-11	-5	5479	6	15	11
N#CC(C(=O)N1CCOCC1)=c1sc(=Cc2ccccn2)c(=O)n1-c1ccccc1	5.0	.	-2	.	.	-1	-11
CCn1c(SCC(=O)NC2CCCC2)nnc1-c1c[nH]c2ccccc12	-0.7	-17	-1	5496	5	2	1
COC(=O)Cc1[nH]nc2c1C1(C(=O)N(Cc3ccc(Cl)cc3)c3ccccc31)C(C#N)=C(N)O2 (stereo not drawn)	12	-20	-4	4229	4	.	.

Reformatted with values under each structure: 2 of the compounds above.
Every second line gives: RN4220 kill	PrP UTR inh	Sa ugtP lethal	Autofluor counter	BJeLR viability	Mtb hypoxia inh growth	Mtb hypoxia inh
Cc1cc2occ(CC(=O)OCC(=O)Nc3sc4c(c3C#N)CCC(C)C4)c2cc1C (stereo not drawn)
    1.8	-12	-6	2389	1	1	-6
CC(=O)c1cccc(NC(=O)/C=C/c2ccc(S(=O)(=O)N3CCOCC3)cc2)c1
    1.4	-1	1	3390	.	9	11

Returning to the listing, starting three compounds before the break.
structure	RN4220 kill	PrP UTR inh	Sa ugtP lethal	Autofluor counter	BJeLR viability	Mtb hypoxia inh growth	Mtb hypoxia inh
N#CC(C(=O)N1CCOCC1)=c1sc(=Cc2ccccn2)c(=O)n1-c1ccccc1	5.0	.	-2	.	.	-1	-11
CCn1c(SCC(=O)NC2CCCC2)nnc1-c1c[nH]c2ccccc12	-0.7	-17	-1	5496	5	2	1
COC(=O)Cc1[nH]nc2c1C1(C(=O)N(Cc3ccc(Cl)cc3)c3ccccc31)C(C#N)=C(N)O2 (stereo not drawn)	12	-20	-4	4229	4	.	.
CC(=O)c1cccc(S(=O)(=O)NC2CCCCCC2)c1	5.1	-7	8	2572	-4	-3	5
CCC1(C)Cc2c(sc3[nH]c(=S)n(Cc4ccccc4)c(=O)c23)CO1 (stereo not drawn)	35	-12	15	2884	9	5	14
CCOc1ccc(N2C(=O)CC(NCCc3ccncc3)C2=O)cc1 (stereo not drawn)	5.5	-11	2	10695	-4	6	11
CCCCn1c(N)c(N(CC(C)C)C(=O)CSc2nnc(C)n2-c2ccc(OC)cc2)c(=O)[nH]c1=O	1.9	-15	6	.	2	-3	-2
O=C(NCc1ccccc1Cl)c1ccc2nc[nH]c2c1	6.0	3	6	2608	7	2	-5
O=C(NC(=S)N1CCc2ccccc21)c1ccccc1Br	-1.4	-27	-5	8740	-9	4	-5
O=C1C=C(c2cc(F)ccc2F)CC(c2ccc(Cl)cc2)C1 (stereo not drawn)	0.6	.	10	.	.	8	24
CC(C)NC(=S)NN=Cc1ccc(N2CCOCC2)cc1	0.3	.	-1	.	.	8	8
COc1ccc(C)cc1Nc1ccc(C(=O)O)cc1[N+](=O)[O-]	6.9	-1	9	3244	-23	6	11
COc1ccc(NC(=O)c2ccc(Cl)nc2)cc1S(=O)(=O)N1CCOCC1	6.3	-17	-2	3812	.	8	3
COc1ccc(C2OC(=O)CC2C(=O)NC(C)C)cc1 (stereo not drawn)	4.6	-2	1	11246	1	1	-3
Cc1ccc(S(=O)(=O)n2nc(OC(=O)c3c(-c4ccccc4Cl)noc3C)cc2N)cc1	8.4	-11	2	3715	4	11	14
Cc1ccc(S(=O)(=O)N2CCOCC2)cc1NC(=O)COC(=O)CCn1c(C)csc1=O	-2.8	-8	-1	6599	8	-1	-5
O=C(c1ccc(F)cc1)c1cn[nH]c1-c1ccccc1O	4.5	-29	2	9862	5	8	5
CCc1ccc(/C=C2\SC(=S)N(CCC(=O)NCCCN3CCOCC3)C2=O)cc1	-1.5	-16	5	5015	103*	6	8
CC(C)Nc1nc(NC(C)C)nc(N(C)C(N)=O)n1	-1.3	-16	-1	19916*	-5	1	0
COc1ccccc1-c1c(C)nn2c(N3CCC(C(N)=O)CC3)cc(C)nc12	1.7	-20	5	5778	-10	5	1
CSc1ccccc1C(=O)NCCOc1cccc(C)c1	7.3	-3	8	3343	3	15	17
COC(=O)C1=C(c2ccc3ccccc3c2)CC2CCC1N2C(=O)NC1CC1 (stereo not drawn)	1.2	.	-9	.	.	4	6
COC(=O)Cn1cc(/C=N/NC(=O)c2ccc(C#N)cc2F)c2ccccc21	.	-20	.	11013	2	.	.
O=C(CSc1ccc(-c2ccccn2)nn1)NCc1ccc(F)cc1	5.7	-16	-1	4753	14	1	13
CCCc1n[nH]c2c1C(=O)CC(C)(C)C2	0.1	-14	-5	2778	1	.	.
CCC1Sc2ccc(S(=O)(=O)CCC(=O)Nc3ccccc3Cl)cc2NC1=O (stereo not drawn)	7.5	0	11	4314	-1	-4	8
O=C(C1CC(=O)N(C2CCCCC2)C1)N1CCN(c2cccc(C(F)(F)F)c2)CC1 (stereo not drawn)	-1.8	-45	1	5793	2	2	11
O=C(NCc1ccc2c(c1)OCO2)c1cccc2c1C(=O)N(C1CCCCC1)C2	-2.6	2	4	4378	1	5	7
C=CCn1c(CCSCc2ccccc2)n[nH]c1=S	3.8	-24	6	5266	1	10	10
COc1ccc(CC(=O)Nc2cccc(-c3csc(C)n3)c2)cc1	15	-3	-2	2516	-8	13	19
CC(=NNC(=O)c1cc(C)nc2ccccc12)c1ccncc1	3.4	.	-2	.	.	-3	-1
CC1=NN(C(=O)c2ccc(Cl)cc2)C(O)(c2ccccc2)C1 (stereo not drawn)	.	1	.	3717	-7	.	.
C#CCOCCOCCOCCNc1nc(N2CCOCC2)nc(N2CCN(C(=O)[C@H](CCC(=O)O)n3cc(C(N)Cc4ccc(O)cc4)nn3)CC2)n1 (stereo partly drawn)	.	-21	.	3076	-21	.	.
Cc1ccc(N(CC(=O)Nc2ccccc2C(=O)N2CCOCC2)S(C)(=O)=O)cc1	1.3	-1	5	4537	7	.	.
COc1ccc(CCNC(=O)CSCc2ccc(Cl)cc2)cc1OC	6.1	-111	4	2414	7	7	6
COc1cc(NC(=O)COC(=O)c2cnc(C)cn2)c(C)cc1[N+](=O)[O-]	-0.6	-2	1	2564	1	-1	-2
CCCCCOc1ccc(C(=O)CCN2CCOCC2)cc1	9.7	-17	5	3418	-3	1	14
CCN(CC(=O)NCc1ccc(Cl)cc1)C(=O)/C=C/c1cccs1	34	-2	-3	3619	1	5	-9
CCCCN=Cc1sc2ccc(OCC)cc2c1O	11	-46	1	4413	-2	25	17
Cc1ccc(S(=O)(=O)N2[C@@H](c3ccc(Br)cc3)C(C(=O)O)=CC[C@H]2c2ccc(Cl)c(Cl)c2)cc1	67	-12	67	3299	.	5	0
CC(C)c1nc2c(c(=O)n(C)c(=O)n2C)n1C	1.6	-14	2	4530	2	10	3
O=C(Cc1cccc(NC(=O)C2CCCN(C(=O)C3CC3)C2)c1)Nc1cccc(C(=O)N2CCOCC2)c1 (stereo not drawn)	3.1	-11	4	2819	.	0	3
CCOC(=O)c1[nH]ncc1CN1CCC(Cc2ccccc2)(C(=O)OCC)CC1	4.2	5	6	4592	-1	5	0
S=C(Nc1ccccc1)N1CCN(c2ccc(N3CCOCC3)nn2)CC1	2.0	-17	-2	2577	-7	-11	-9
O=C(NC1CC1)c1cc2c(F)cccc2s1	8.8	0	-7	2094	3	2	7
c1ccc(CSCc2cn3ccsc3n2)cc1	4.1	-40	6	2915	5	4	5
O=C(c1ccc(-c2ccccc2)cc1)N1CCN(C(=O)c2ccco2)CC1	-3.5	-15	-1	2864	-6	2	16
